# Bioassay records: PubChem, several laboratories
# Beta cell apopt: inhibitors of cytokine-induced beta cell apoptosis, primary screen, luminescence; 300,000 tested, 0.8% active; INS-1E cytokine-induced death, ATP luminescence, 48 h; percent of positive-control rescue, neutral wells zero; protection from apoptosis, % (no concentration beside the values);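 active = all replicates at 75% or more, or half of them and the mean; inconclusive = half reach 75% but not the mean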;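 also: 0% = cytokine-treated negative control wells and 100% = positive control rescue; higher means more ATP so stronger rescue from cytokine killing; wells of about 40 µL received 100 nL stock; the first replicate is given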
# B2AR ag: beta2AR agonists driving receptor internalization, primary screen, cell-based, FAP fluorogen, flow cytometry. 340,000 tested, 0.43% active. response, % (test concentration not listed). Beta-2 adrenergic receptor (Homo sapiens), P07550. Am2.2-beta2AR cells; reference of the scale not given here;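 active = response above a set limit, near 3 SD of response in nonfluorescent compounds, cut at about 42% in these data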;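 also: stock transfer was 100 nL into about 11 µL; a reference agonist was the positive control; negative values mostly stem from fluorescent compounds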
# Target sequence (P07550 whole entry, looked up): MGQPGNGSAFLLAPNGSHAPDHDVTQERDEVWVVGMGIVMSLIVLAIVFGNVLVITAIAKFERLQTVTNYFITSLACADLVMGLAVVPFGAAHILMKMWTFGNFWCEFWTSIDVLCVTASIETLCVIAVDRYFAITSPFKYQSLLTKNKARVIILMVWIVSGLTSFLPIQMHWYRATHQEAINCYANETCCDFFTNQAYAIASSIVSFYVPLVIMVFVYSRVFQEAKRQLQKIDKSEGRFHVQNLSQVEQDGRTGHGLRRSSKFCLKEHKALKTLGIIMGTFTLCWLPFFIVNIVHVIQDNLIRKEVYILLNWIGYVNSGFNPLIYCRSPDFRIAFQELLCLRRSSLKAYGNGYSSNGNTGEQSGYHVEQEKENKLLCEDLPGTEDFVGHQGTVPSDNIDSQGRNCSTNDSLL
# A1 inh: caspase 3/7 activation in MEF A1-2A-BIM cells, primary screen, A1 inhibitor project, cell-based, luminescence, HTS; caspase activation, % (no concentration beside the values); 330,000 tested, 0.066% active; Caspase-Glo 3/7 luminescence, 3 h; percent of clofoctol response, vehicle zero;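 active = over half of replicate activation scores above 10%, or exactly half above 10 with the replicate mean above 10; inconclusive = replicate mean below 10 yet half the replicates above 10; inactive = over half of replicates below 10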;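 also: wells of about 30 µL received 50 nL stock; many hits fall short of the cut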
# rRNA inh HTS: reduced GFP signal of wild-type E. coli, primary screen, bacterial rRNA inhibitor project, GFP/RFP fluorescence, OD600, single point | E. coli WT GFP vs humanized-ribosome RFP mutants, 24 h; stronger effect = lower value; DMSO median 0, no signal -100 | GFP signal change (wild-type ribosome), % (no concentration beside the values) | 350,000 tested, 1.6% active;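 active = significant combined selectivity score with lowered wild-type GFP, culture density cut under 30%, mutant RFP and density less affected; inactive = any of these conditions unmet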; also: one replicate is shown; some compounds called inactive have numbers as strong as hits
# Calb FLC: C. albicans growth inhibition with fluconazole, primary screen, CaCi-2 strain, Alamar Blue fluorescence; C. albicans CaCi-2 (fluconazole-resistant clinical isolate) + fluconazole, 48 h; 300,000 tested, 0.57% active; growth inhibition, % (no concentration beside the values);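 active = most replicates above 75%; inconclusive = exactly half above 75%; inactive = most below 75%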;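 also: all wells also contain fluconazole at 8 µg/ml as a sub-toxic cotreatment; 0% = median of DMSO wells and 100% = median of geldanamycin control wells; wells of about 8 µL received 7.5 nL stock; the first replicate is given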
# ALR inh: inhibitors of human ALR sulfhydryl oxidase, primary screen, biochemical, H2O2 detection, HRP-luminol luminescence, single point; FAD-linked sulfhydryl oxidase ALR (Homo sapiens), P55789; purified ALR, DTT oxidation; inhibition, % (test concentration not listed); 290,000 tested, 3.8% active;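 active = mean and each replicate at 75% or more; inconclusive = only one of the two met; inactive = neither met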;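 also: stock transfer was 7.5 nL into about 7.5 µL; 0% = neutral wells and 100% = wells with inactivated enzyme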
# Target sequence (P55789 whole entry, looked up): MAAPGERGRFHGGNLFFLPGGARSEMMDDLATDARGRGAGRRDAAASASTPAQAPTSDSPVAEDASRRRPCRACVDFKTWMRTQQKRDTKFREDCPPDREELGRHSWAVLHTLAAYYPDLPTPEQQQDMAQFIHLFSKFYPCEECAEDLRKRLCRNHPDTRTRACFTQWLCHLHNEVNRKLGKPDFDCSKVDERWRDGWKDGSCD
# LANA-H2A inh: blockers of LANA interaction with H2A/H2B – biochemical, FP readout, HTS, primary screen | Protein LANA1 (Human herpesvirus 8 type P (isolate GK18)), Q9QR71 | 320,000 tested, 0.6% active | AID 2629, 2010 | inhibition, % (no concentration beside the values) | cell-free LANA-H2A/H2B peptide, fluorescence polarization; in the data active = inhibition mostly above about 10%, no sharp cut-off; inactive = mostly below about 6.7%;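 also: stock transfer was 7.5 nL into about 10 µL; 0% = median of vehicle wells and 100% = median of positive control wells; one replicate is shown; the record names a cut of 25% in any replicate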
# T cruzi inh: inhibitors of intracellular T. cruzi growth, primary screen, luminescence, NIH3T3 host cells; inhibition, % (test concentration not listed); T. cruzi beta-gal in NIH3T3, 90 h; AID 1885, 2009; 300,000 tested, 1.4% active;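 active = mean inhibition across valid replicates above about 55%, limit read from the data; inconclusive = mean below that limit but half or more replicates reach it; inactive = mean below it, under half of replicates reach it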;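 also: signal also drops with host cell toxicity which is not excluded here; 0% = plate median of DMSO wells and 100% = zero luminescence signal; higher percent means less beta-gal luminescence so fewer parasites; stock transfer was 50 nL into about 50 µL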
# rRNA inh HTS OD600: recorded beside rRNA inh HTS, whose call it bears; OD600 change, %; measured here: OD600 growth;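 optical density of the mix in the first replicate; 0 = DMSO median and -100 = no signal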
# rRNA inh HTS RFP: further read-out of rRNA inh HTS, marked with its call; RFP signal change, %; measured here: RFP humanized mutant strains;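 first replicate; 0 = DMSO median and -100 = no signal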
# An asterisk follows results filed as active; ? = inconclusive; . = not tested or not shown. An excerpt. The share of hits here may be higher or lower than overall.
SMILES,Beta cell apopt,B2AR ag,A1 inh,rRNA inh HTS,rRNA inh HTS OD600,rRNA inh HTS RFP,Calb FLC,ALR inh,LANA-H2A inh,T cruzi inh
CC/C(O)=N\S(=O)(=O)c1ccc(N=NN(C)C)cc1,-2,-7,0.1,.,.,.,4,-19,-0.9,-1
O=C(c1ccc2c(c1)OCO2)N1CCN(S(=O)(=O)c2ccccc2)CC1,-5,-4,0.6,7,5,1.2,-24,0,0.9,-5
COc1cccc(N2C(=NC(=O)CCc3ccccc3)SC3CS(=O)(=O)CC32)c1 (stereo unspecified),-4,2,0.8,0,8,-3.0,-4,-2,5.6,-2
O=C(CCN1C(=O)c2ccccc2C1=O)NCCCn1ccnc1,-5,4,1.3,16,14,1.8,21,-8,5.1,-9
O=S(=O)(Nc1cccc(S(=O)(=O)N2CCCC2)c1)c1ccc(Cl)cc1,2,1,-0.7,-22,-36,-5.5,.,-2,-4.7,.
CCOC(=O)C1=C(O)/C(=C/c2ccc(OCC(=O)O)c(OCC)c2)SC1=Nc1ccccc1,-5,-9,-0.1,-13,-8,-2.5,14,52,2.8,2
COCCNC(=O)CN(C(=O)CCC(=O)Nc1ccccn1)c1ccc(F)c(Cl)c1,-3,-4,-0.4,.,.,.,-7,-2,-2.9,-8
Cc1ccccc1Cn1c(=O)n(Cc2ccco2)c(=O)c2ccccc21,-20,-1,0.1,.,.,.,-2,1,-0.7,27
Cc1nn(-c2ccccc2)c(C)c1/C=N/NC(=O)c1ccccc1NS(=O)(=O)c1cccs1,0,6,0.0,.,.,.,31,5,2.1,9
COc1ccc(NC(=O)CS(=O)CC(=O)NCC2OCCc3ccccc32)cc1 (stereo unspecified),2,-9,0.4,10,8,2.7,-4,-1,-4.7,-11
CCCCOc1ccc(NC(=O)C2CC=CCC2C(=O)O)cc1 (stereo unspecified),1,-4,0.6,2,2,6.0,-10,-3,-0.1,-5
O=C(c1ccccc1)N1CCC(=O)N1c1ccccc1,-2,3,1.4,.,.,.,3,-6,-0.9,20
CCOc1ccccc1N1CCN(C(=O)c2c(CC)noc2C)CC1,-3,2,-0.3,-1,1,-0.4,3,17,-2.4,-8
COC(=O)[C@@H](NC(=O)Nc1ccc(C(C)=O)cc1)C(C)C,-2,-3,-0.6,.,.,.,-8,-1,5.0,4
CC(C)c1ccc(NC(=O)N2CCC(c3nc4ccccc4o3)CC2)cc1,6,6,1.6,-7,-15,-5.3,-17,-2,-1.5,12
CCOCCCn1c(=S)[nH]c2cc(C(=O)NCCc3ccc(OC)c(OC)c3)ccc2c1=O,-1,2,0.4,2,13,-0.6,0,-1,3.5,5
O=C(/C=C/c1ccc(S(=O)(=O)N2CCOCC2)cc1)NCc1ccccc1F,4,-4,0.3,2,6,-0.9,.,0,-1.6,.
CC(C)C[C@H](NC(=O)c1nc[nH]c1C(=O)N1CCNCC1)C(=O)OC(C)(C)C,-4,-8,1.3,13,7,13,-11,3,0.2,-13
CC(=O)Nc1ccc(NC(=O)CCCSc2nc3ccccc3s2)cc1,-5,-3,-0.2,-12,-1,2.5,37,-8,-3.9,14
Cc1ccc(CN(c2ccc(C(=O)Nc3ccc4c(c3)OCO4)cc2)S(C)(=O)=O)cc1,0,-2,-0.4,.,.,.,7,-11,-2.3,-18
Cc1[nH]c(C)c(S(=O)(=O)N2CCCCC2C)c1C(=O)N1CCCC1 (stereo unspecified),-5,-4,-0.1,11,14,-1.4,-18,-1,-2.0,-26
COc1ccc(C(=O)NCCCn2ccnc2)cc1[N+](=O)[O-],0,14,0.3,7,8,-1.4,-6,-8,1.2,7
Cc1nc2sc(C(=O)OCC(=O)N3c4ccccc4CC3C)c(C)c2c(=O)[nH]1 (stereo unspecified),0,26,0.0,13,13,-0.8,29,1,2.5,0
Cc1cc(C)c(C)c(S(=O)(=O)N[C@@H](C)C(=O)OCC(N)=O)c1C,-3,-3,-0.5,12,-3,1.8,1,1,0.1,-7
CC12CC(c3ccccc3O1)C(C(=O)N1CCOCC1)C(=O)N2 (stereo unspecified),5,8,-0.2,13,10,1.3,-27,2,2.4,-13

# The closing three entries of the section above are carried over, then new ones follow.
SMILES,Beta cell apopt,B2AR ag,A1 inh,rRNA inh HTS,rRNA inh HTS OD600,rRNA inh HTS RFP,Calb FLC,ALR inh,LANA-H2A inh,T cruzi inh
Cc1nc2sc(C(=O)OCC(=O)N3c4ccccc4CC3C)c(C)c2c(=O)[nH]1 (stereo unspecified),0,26,0.0,13,13,-0.8,29,1,2.5,0
Cc1cc(C)c(C)c(S(=O)(=O)N[C@@H](C)C(=O)OCC(N)=O)c1C,-3,-3,-0.5,12,-3,1.8,1,1,0.1,-7
CC12CC(c3ccccc3O1)C(C(=O)N1CCOCC1)C(=O)N2 (stereo unspecified),5,8,-0.2,13,10,1.3,-27,2,2.4,-13
O=C(O)c1sccc1SCc1ccc(Cl)c(Cl)c1,-7,2,-3.5,.,.,.,-4,-4,0.1,16
CCOc1ccc(CN2C(=O)CC(=O)N(S(=O)(=O)c3ccc(OCC)cc3)C2=O)cc1,2,4,0.3,8,5,-0.5,-4,.,1.5,-8
CS(=O)(=O)N1CCC(C(=O)Nc2cccc(Br)c2)CC1,-1,2,-0.2,2,-3,0.7,4,-15,-8.6,-5
COc1ccc(N(CC(=O)NCC2CCCO2)C(=O)CCC(=O)Nc2cc(C)on2)cc1OC (stereo unspecified),-1,0,1.7,4,3,-1.8,12,0,-1.2,-1
Cc1ccc(C)c(NC(=S)NCCc2c[nH]c3ccccc23)c1,14,14,0.2,-17,-5,9.4,10,12,-1.8,-11
Cc1ccc(-c2nc3ccccc3o2)cc1NC(=S)NC(=O)/C=C/c1ccco1,.,0,1.1,.,.,.,-4,.,-1.1,-26
CCOC(=O)CSc1nnc(NC(=O)c2cccc(S(=O)(=O)N3CCCC3)c2)s1,.,-6,0.8,6,2,-4.7,-15,-6,2.0,-7
Cc1cc(OCC(=O)N(C)Cc2ccccc2)cc(C)c1Cl,-6,1,1.6,-14,-16,1.3,7,-5,-2.7,-1
CCOC(=O)c1c(C)[nH]c(C(=O)OCC(=O)N2CC(C)OC(C)C2)c1C (stereo unspecified),0,6,-0.2,.,.,.,16,.,-3.7,-9
O=C1C=C(Nc2ccc(Cl)cc2Cl)CC(c2ccco2)C1 (stereo unspecified),-1,-1,0.7,-22*,1.0*,-5.0*,12,-3,4.6,20
O=C(COc1ccc2ccccc2c1CN1CCOCC1)N1CCc2ccccc21,11,-6,0.6,.,.,.,-7,-34,5.7,24
O=C(CNC(=O)c1ccccc1)OCc1cccc(Br)c1,-11,-1,-0.4,-16,-23,-2.6,8,-3,-0.8,-15
S=c1[nH]ncn1-c1ccccn1,1,-6,-0.2,.,.,.,-4,68,0.2,12
COc1cc([N+](=O)[O-])cc(/C=N/N(CCC#N)C(C)=O)c1O,-2,4,0.0,-15,-22,0.7,-20,6,-4.0,-7
COc1ccc(Cl)c(Cn2c(NCCCN(C)C)nc3c2c(=O)n(C)c(=O)n3C)c1,-1,0,-0.4,.,.,.,-12,55,-1.8,34
O=C(CCSc1ccccc1)Nc1ccccc1Br,-1,16,-0.1,-7,-2,-2.4,-14,-11,0.7,-5
O=C(NNc1ccccn1)c1ccc(Cl)nc1,-8,0,1.3,11,17,1.1,?,92*,-5.9,-9
Cc1ccc(OCC(=O)N(C)Cc2ccccc2)c([N+](=O)[O-])n1,-1,-4,0.5,15,-3,-5.7,-4,.,17*,3
Cc1cc(C)nc(N2CCN(C(=O)CCC(=O)Nc3nnc(CC(C)C)s3)CC2)n1,0,1,-1.3,2,2,2.0,0,-2,-10,14
CCOc1ccc(CCNC(=O)Nc2ccccc2C)cc1OCC,-2,-7,-0.3,19,16,0.7,-11,14,1.4,-13
Cc1ccc2nc(N3CCN(S(=O)(=O)c4ccc(C)c(Cl)c4)CC3)c(C#N)cc2c1,2,9,-0.2,.,.,.,2,-19,-2.2,34
COc1cc(NC(=O)CN2CCN(c3ccccn3)CC2)cc(OC)c1OC,-4,-4,-0.6,7,3,-0.5,-1,4,1.9,-12
O=C(C1=C(O)C(=O)N(c2ncccn2)C1c1ccc(Cl)cc1)c1ccco1 (stereo unspecified),1,-2,-0.7,.,.,.,33,.,-4.3,5
O=C(COc1ccccc1)N(Cc1ccccc1)c1nc(-c2ccccc2)cs1,5,-3,1.2,.,.,.,14,-1,-1.2,-13
CC(=O)NNC(=O)c1cc2c3ccccc3n(C)c2s1,0,2,0.3,-21,-16,-5.7,-4,20,-7.2,6
SMILES,Beta cell apopt,B2AR ag,A1 inh,rRNA inh HTS,rRNA inh HTS OD600,rRNA inh HTS RFP,Calb FLC,ALR inh,LANA-H2A inh,T cruzi inh
COc1cccc(NC(=S)NNC(=O)Cn2nc([N+](=O)[O-])cc2C)c1,2,7,-0.4,4,4,-3.2,-1,60,-14,15
CCC(=O)Nc1ccc(N2CCN(S(C)(=O)=O)CC2)cc1,2,1,-0.3,.,.,.,-7,-23,0.3,-18
CCc1ccc(C2=NN(CCC(=O)NC3CCCCCC3)C(=O)CC2)cc1,3,0,1.1,-3,-17,-0.1,-2,1,1.6,1
O=C(c1cc2ccccc2o1)N1CCN(c2ccccc2Cl)CC1,-5,0,0.5,.,.,.,26,-4,3.8,-1
CCCCOc1ccc(C(=O)NCC(=O)NC2CCCCC2)cc1,5,-12,0.4,15,19,1.1,.,-2,3.4,.
Cc1nc([N+](=O)[O-])cn1CC(=O)Nc1ccc(F)c(Cl)c1,-3,1,-0.9,8,12,-2.0,2,-6,-0.8,1
COc1ccc(NC(=O)CSc2cc(C)ccc2C)cn1,-4,3,-1.0,-18,-14,-1.4,-14,-5,3.1,-13

# 4 entries drawn at random from those above, as already listed:
SMILES,Beta cell apopt,B2AR ag,A1 inh,rRNA inh HTS,rRNA inh HTS OD600,rRNA inh HTS RFP,Calb FLC,ALR inh,LANA-H2A inh,T cruzi inh
CCc1ccc(C2=NN(CCC(=O)NC3CCCCCC3)C(=O)CC2)cc1,3,0,1.1,-3,-17,-0.1,-2,1,1.6,1
CCC(=O)Nc1ccc(N2CCN(S(C)(=O)=O)CC2)cc1,2,1,-0.3,.,.,.,-7,-23,0.3,-18
Cc1nc([N+](=O)[O-])cn1CC(=O)Nc1ccc(F)c(Cl)c1,-3,1,-0.9,8,12,-2.0,2,-6,-0.8,1
O=C(c1cc2ccccc2o1)N1CCN(c2ccccc2Cl)CC1,-5,0,0.5,.,.,.,26,-4,3.8,-1
